E coli growth: inhibitors of Escherichia coli growth; actives 0.21% (n = 330,000); OD600 absorbance (concentration not given with the values); OD600, 23 h; hits give low values;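 active means OD600 absorbance below the run mean of sample wells minus 3.6 SD, in any replicate, cut at about 0.56 in these data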;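 further: stock transfer was 300 nL into about 60 µL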
Numbers without * were called inactive; & = joins results of further samples.

`Cc1ccc(C(=O)NCCN2C3=NCC(Cc4ccc(O)cc4)N3CC2Cc2ccc(O)cc2)cc1Br` (configuration not stated) gave E coli growth 0.63.
N#Cc1ccc(C23CC4(C2)C(CN(Cc2ccc(-c5ccccc5)cc2)C4c2ccccc2)C3c2ccc(Cl)nc2)cc1 (configuration not stated) was read as E coli growth 0.7.
Screening CC(C)(C)OC(=O)CC1CC=CCC(CC(=O)N(CCO)Cc2ccccc2)C(=O)NCCOC1=O (configuration not stated) returned E coli growth 0.66&0.69&0.69.
For COc1ccc(C2CC(=O)C=C(C=CCc3ccccc3)C2)cc1 (configuration not stated) the results were E coli growth 0.65.
Screening COc1cc2c(c(OC)c1OC)-c1c(cc3c(c1OC)OCO3)C1OC2C(C)C1C (configuration not stated) returned E coli growth 0.68.
Screening COC(=O)C1=C(C(=O)OC)C2Nc3ccccc3[C@@]23CC(C(=O)OC)N(C(=O)c2ccco2)C3=N1 (some centres not stated) returned E coli growth 0.69.
For C[C@]12CC(O)C3C(CCC4=CC(=O)CC[C@@]43C)C1CCC2C(=O)CO (some centres not stated) the results were E coli growth 0.69.
CC1CN(C(C)CO)C(=O)c2cccc(NC(=O)CCC(F)(F)F)c2OC1CN(C)CC1CCCCC1 (configuration not stated) was read as E coli growth 0.65.
`Cc1noc(C)c1NC(=O)Nc1cccc2c1OC(CN(C)S(=O)(=O)c1c(C)noc1C)C(C)CN(C(C)CO)C2=O` (configuration not stated) gave E coli growth 0.7.
`Cc1cccc(N2C(=O)N3C(c4ccc(Br)cc4)C4C(=O)N(C(C)(C)C)C(=O)C4[C@]3(C)C2=O)c1` (some centres not stated) gave E coli growth 0.68.
For CC(=O)OC1CC[C@@]2(C)C(CCC3C2CC[C@@]2(C)C3CC2C(C)(C)O)C1 (some centres not stated) the results were E coli growth 0.65.
`CC=CC(=O)Nc1cccc(C2=NOC3(C2)CC(C(N)=O)N(C(=O)C(C)=CC)C3)c1` (configuration not stated) gave E coli growth 0.67.
For COCCN1C(=O)C(=O)C(=C(O)c2ccc3c(c2)OCCO3)C1c1ccc(C(=O)OC)cc1 (configuration not stated) the results were E coli growth 0.68.
For CCOC(=O)CN1C(=O)NC(c2ccco2)C(C(C)=O)=C1C (configuration not stated) the results were E coli growth 0.69.
Screening O=C(CC(c1ccccc1)(c1ccccc1)c1ccccc1)NC(Cc1ccccc1)C(=O)O (configuration not stated) returned E coli growth 0.7.
For C#CCNC(=O)C1=CC(C2CCCCC2)CC(OCCCCO)O1 (configuration not stated) the results were E coli growth 0.72&0.69.
C=C(C)C(=O)N1CC2(CC(c3cccc(NC(=O)CC(c4ccccc4)c4ccccc4)c3)=NO2)CC1C(N)=O (configuration not stated) was read as E coli growth 0.69.
`COC(=O)C(CC(C)C)NS(=O)(=O)c1ccccc1` (configuration not stated) gave E coli growth 0.7.
For CC1CCN(C(=O)c2[nH]cnc2C(=O)NC(C)C(=O)OCc2ccccc2)CC1 (configuration not stated) the results were E coli growth 0.69.
`COC(=O)[C@]1(Cc2ccccc2)NC(c2ccc(-c3cc(C(C)=O)cs3)cc2)C2C(=O)N(C)C(=O)C21` (some centres not stated) gave E coli growth 0.74.
O=C(O)C(Cc1ccc(O)cc1)NC(=O)C(c1ccccc1)c1ccccc1 (configuration not stated) was read as E coli growth 0.69.
CC(O)C1CNCCN1CC1(c2ccccc2)CC1 (configuration not stated) was read as E coli growth 0.68.
`CCC(C)C(C(=O)N1CCN(C(=O)OC(C)(C)C)CC1)n1cc(CCCN=C(NC(=O)OC(C)(C)C)NC(=O)OC(C)(C)C)nn1` (configuration not stated) gave E coli growth 0.6.
For COc1ccccc1CN1C(=O)C2Cc3c([nH]c4ccccc34)C(C)(C)N2C1=O (configuration not stated) the results were E coli growth 0.66&0.66.
Screening O=C1NC(c2ccccc2)COC(=O)C(Cc2ccc(F)cc2)CCC=CCC1CC(=O)N(CCO)Cc1ccccc1 (configuration not stated) returned E coli growth 0.73.
Screening CC1CN(C(C)CO)C(=O)c2cccc(NC(=O)Nc3ccc(C(F)(F)F)cc3)c2OC1CN(C)S(C)(=O)=O (configuration not stated) returned E coli growth 0.7.
Screening CCOc1ccc(C2CC=C(C(=O)O)CN2S(=O)(=O)c2ccc(C)cc2)cc1 (configuration not stated) returned E coli growth 0.68.
For COC1=C(C)C(O)=C(C(=O)C=Cc2ccccc2)C(=O)C1(C)C the results were E coli growth 0.7.
For CCOC(=O)C1C2COc3ccc(C)cc3C2N2C(=O)CN(Cc3ccc(C)cc3)C(=O)[C@@]12C (some centres not stated) the results were E coli growth 0.67.
For C=CCC(CC(=O)NCCO)C(=O)NC(COC(=O)C(CC=C)Cc1ccc(F)cc1)Cc1c[nH]c2ccccc12 (configuration not stated) the results were E coli growth 0.65&0.67.
Screening C#CCOCCOCCOCCNc1nc(N2CCN(C(=O)C(CCCCN)n3cc(C(N)CO)nn3)CC2)nc(N2CCN(C(=O)C(Cc3ccc(O)cc3)n3cc(C(N)C(C)CC)nn3)CC2)n1 (configuration not stated) returned E coli growth 0.67.
For O=C1NC(=O)C(=Cc2ccco2)N1 the results were E coli growth 0.71.
COc1ccc(C2CC(=O)C=C(c3ccc(-c4ccccc4)cc3)C2)cc1OC (configuration not stated) was read as E coli growth 0.63.
CCCCC1COCCS(=O)(=O)N1Cc1cccc(F)c1 (configuration not stated) was read as E coli growth 0.69.
For COc1ccc(CN2C(CC(=O)O)c3cc(F)ccc3S2(=O)=O)cc1 (configuration not stated) the results were E coli growth 0.66.
For CCN1C(=O)C2C(c3ccc(-c4ccc(F)cc4)c(OC)c3)N3CCCC[C@@]3(C(=O)OC)C2C1=O (some centres not stated) the results were E coli growth 0.7&0.67.
Screening CNCCC(Oc1ccccc1C)c1ccccc1 (configuration not stated) returned E coli growth 0.68.
For Cc1cccc(C)c1C(=O)NC(Cc1ccccc1)C(=O)O (configuration not stated) the results were E coli growth 0.69.
Screening COc1ccc(C2C=CCN(C(=O)CC(C)C)CC(=O)N2Cc2ccc(F)cc2)cc1 (configuration not stated) returned E coli growth 0.67.
CC1C=C(C(=O)NCc2nc3ccccc3[nH]2)OC(OCCCCO)C1 (configuration not stated) was read as E coli growth 0.68&0.7.
For COc1cc(C=C2SC(=O)N(c3ccc(Cl)cc3)C2=O)cc([N+](=O)[O-])c1O the results were E coli growth 0.66.
`CC1CN(C(C)CO)C(=O)c2cccc(NS(=O)(=O)c3ccc(Cl)cc3)c2OC1CN(C)CC1CCCCC1` (configuration not stated) gave E coli growth 0.71.
`FC(F)(F)c1ccc(CN2CC3C(c4ccc(C(F)(F)F)cc4)C4(c5cccnc5)CC3(C4)C2c2ccccc2)cc1` (configuration not stated) gave E coli growth 0.7.
Screening CN1CC2C(c3ccccc3)C3(c4cccnc4)CC2(C3)C1c1ccccc1 (configuration not stated) returned E coli growth 0.71.
Screening CC(C(=O)Nc1ccc2ccccc2c1)C1C[C@]1(C)C(NS(=O)(=O)c1ccc(-c2ccccc2)cc1)c1ccccc1 (some centres not stated) returned E coli growth 0.7.
For CC(C)(C)C1C=C(C(=O)N2CCOCC2)OC(OCCCCO)C1 (configuration not stated) the results were E coli growth 0.67.
`Cc1nc2c(C)cccn2c1C(O)=C1C(=O)C(=O)N(CCN2CCOCC2)C1c1ccncc1` (configuration not stated) gave E coli growth 0.65.
For NC(=O)CC1NC(=O)CNC(=O)c2cc([N+](=O)[O-])cc(I)c2NCCC(C(N)=O)NC1=O (configuration not stated) the results were E coli growth 0.68.

Arranged by molar mass (lowest first): 19 of the compounds above
For O=C1NC(=O)C(=Cc2ccco2)N1 the results were E coli growth 0.71.
For COC1=C(C)C(O)=C(C(=O)C=Cc2ccccc2)C(=O)C1(C)C the results were E coli growth 0.7.
CCCCC1COCCS(=O)(=O)N1Cc1cccc(F)c1 (configuration not stated) was read as E coli growth 0.69.
For COc1ccc(C2CC(=O)C=C(C=CCc3ccccc3)C2)cc1 (configuration not stated) the results were E coli growth 0.65.
CC1C=C(C(=O)NCc2nc3ccccc3[nH]2)OC(OCCCCO)C1 (configuration not stated) was read as E coli growth 0.68&0.7.
For CC(=O)OC1CC[C@@]2(C)C(CCC3C2CC[C@@]2(C)C3CC2C(C)(C)O)C1 (some centres not stated) the results were E coli growth 0.65.
For COc1ccc(CN2C(CC(=O)O)c3cc(F)ccc3S2(=O)=O)cc1 (configuration not stated) the results were E coli growth 0.66.
COc1ccc(C2CC(=O)C=C(c3ccc(-c4ccccc4)cc3)C2)cc1OC (configuration not stated) was read as E coli growth 0.63.
For COc1ccccc1CN1C(=O)C2Cc3c([nH]c4ccccc34)C(C)(C)N2C1=O (configuration not stated) the results were E coli growth 0.66&0.66.
`CC=CC(=O)Nc1cccc(C2=NOC3(C2)CC(C(N)=O)N(C(=O)C(C)=CC)C3)c1` (configuration not stated) gave E coli growth 0.67.
Screening COc1cc2c(c(OC)c1OC)-c1c(cc3c(c1OC)OCO3)C1OC2C(C)C1C (configuration not stated) returned E coli growth 0.68.
Screening O=C(CC(c1ccccc1)(c1ccccc1)c1ccccc1)NC(Cc1ccccc1)C(=O)O (configuration not stated) returned E coli growth 0.7.
`Cc1nc2c(C)cccn2c1C(O)=C1C(=O)C(=O)N(CCN2CCOCC2)C1c1ccncc1` (configuration not stated) gave E coli growth 0.65.
`COC(=O)[C@]1(Cc2ccccc2)NC(c2ccc(-c3cc(C(C)=O)cs3)cc2)C2C(=O)N(C)C(=O)C21` (some centres not stated) gave E coli growth 0.74.
`Cc1cccc(N2C(=O)N3C(c4ccc(Br)cc4)C4C(=O)N(C(C)(C)C)C(=O)C4[C@]3(C)C2=O)c1` (some centres not stated) gave E coli growth 0.68.
C=C(C)C(=O)N1CC2(CC(c3cccc(NC(=O)CC(c4ccccc4)c4ccccc4)c3)=NO2)CC1C(N)=O (configuration not stated) was read as E coli growth 0.69.
Screening CC1CN(C(C)CO)C(=O)c2cccc(NC(=O)Nc3ccc(C(F)(F)F)cc3)c2OC1CN(C)S(C)(=O)=O (configuration not stated) returned E coli growth 0.7.
Screening O=C1NC(c2ccccc2)COC(=O)C(Cc2ccc(F)cc2)CCC=CCC1CC(=O)N(CCO)Cc1ccccc1 (configuration not stated) returned E coli growth 0.73.
`CCC(C)C(C(=O)N1CCN(C(=O)OC(C)(C)C)CC1)n1cc(CCCN=C(NC(=O)OC(C)(C)C)NC(=O)OC(C)(C)C)nn1` (configuration not stated) gave E coli growth 0.6.

Returning to the listing, starting two compounds before the break.
`Cc1nc2c(C)cccn2c1C(O)=C1C(=O)C(=O)N(CCN2CCOCC2)C1c1ccncc1` (configuration not stated) gave E coli growth 0.65.
For NC(=O)CC1NC(=O)CNC(=O)c2cc([N+](=O)[O-])cc(I)c2NCCC(C(N)=O)NC1=O (configuration not stated) the results were E coli growth 0.68.
`Cc1noc(C)c1NC(=O)N(C)CC1Oc2c(NC(=O)Nc3ccc4c(c3)OCO4)cccc2C(=O)N(C(C)CO)CC1C` (configuration not stated) gave E coli growth 0.69.
Screening COc1ccc(C2C3C(=O)N(C(C)(C)C)C(=O)C3[C@]3(Cc4ccccc4)C(=O)N(c4ccc(C)cc4)C(=O)N23)cc1 (some centres not stated) returned E coli growth 0.71.
For CC(C)CC(N)c1cn(C(CCC(=O)O)C(=O)N2CCNCC2)nn1 (configuration not stated) the results were E coli growth 0.69.
`CCOC1OC(C(N)=O)=CC(C2CC2)C1CCCO` (configuration not stated) gave E coli growth 0.66.
For O=C1NCC(Cc2cccc3ccccc23)N(CCc2cc(C(F)(F)F)cc(C(F)(F)F)c2)C1=O (configuration not stated) the results were E coli growth 0.65.
CCOC(=O)C1C2COc3ccc(Br)cc3C2N2C(=O)CN(Cc3ccccc3)C(=O)[C@@]12C (some centres not stated) was read as E coli growth 0.65.
CN(CCC=C1c2ccccc2CSc2ccccc21)CCCO was read as E coli growth 0.65.
For CC1CN(C(C)CO)C(=O)c2cc(NS(=O)(=O)c3ccccc3)ccc2OC1CN(C)C(=O)Nc1ccccc1 (configuration not stated) the results were E coli growth 0.6.
For CCCSc1ccc(C2N[C@@](C)(C(=O)OC)C3C(=O)N(C)C(=O)C23)cc1 (some centres not stated) the results were E coli growth 0.7.
CCOC(=O)C1C2COc3ccc(Br)cc3C2N2C(=O)CN(Cc3ccc(C)cc3)C(=O)[C@@]12C (some centres not stated) was read as E coli growth 0.71.
Screening CCN1CC2C3C(=O)N(Cc4ccccc4)C(=O)C3[C@](Cc3ccccc3)(C1=O)N2C(=O)c1ccc(C(F)(F)F)cc1 (some centres not stated) returned E coli growth 0.69.
CCOC(=O)CN1C(=O)NC(c2cccc(F)c2)C(C(=O)OC)=C1C (configuration not stated) was read as E coli growth 0.7.
For COc1ccccc1C1C(c2cccc(C)c2)=NN(c2ccccc2)C1C(=O)N1CCOC1=O (configuration not stated) the results were E coli growth 0.65.
`COC(=O)[C@@]1(Cc2ccc(F)cc2)C2c3cc(C(=O)N4CCCC4)n(CCO)c3CC2CN1C(=O)c1ccccc1` (some centres not stated) gave E coli growth 0.67.
CCCN1CCC(=O)N(C(CSc2ccc(OC)cc2)Cc2ccccc2)CC1 (configuration not stated) was read as E coli growth 0.67.
Cn1c(SCC=Cc2ccccc2)nnc1-c1cnccn1 was read as E coli growth 0.67.

The list is partial; count on the stated rates, not on these rows.
